Vif A3G – HIV-1 Vif–A3G interaction blockers – biochemical, TR-FRET, GST-Vif 1-94, biotin-A3G peptide, dose response retest, primary screen (AID 1117319). TR-FRET GST-Vif / biotin-A3G peptide binding; higher % means a stronger effect; test concentration not given here; strong numbers were not always called active. inhibition, %, or IC50 in µM where a hit was titrated. 0.57% of 260,000 active;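 active = above the screen mean plus three standard deviations and confirmed in dose response; inconclusive = results disagree or hit not tested in dose response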;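 also: Vif residues 1-94 fused to GST binding biotinylated APOBEC3G peptide 110-148; 0% = full assay without inhibitor and 100% = GST in place of GST-Vif; retest series ran down from 100 µM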
HNF4A DNA FP – change in binding of human HNF4 alpha to DNA; activity change, % at 10 µM; 0.3% of 360,000 active; HNF4a-FITC DNA binding, fluorescence polarization, 1 h; in the data active = activity change above about 30%, passing the limit was not always enough;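 also: controls were the assay level and a saturating level of protein; the project sought stronger binding though the title names inhibitors; some compounds called inactive have numbers as strong as hits; positive values seem to mean higher polarization but the record does not say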
E coli growth – inhibitors of Escherichia coli growth; OD600, 23 h; active compounds read low; OD600 absorbance (test concentration not listed); 0.21% of 330,000 active;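 active = OD600 absorbance below the run mean of sample wells minus 3.6 SD, in any replicate, cut at about 0.56 in these data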;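 also: stock transfer was 300 nL into about 60 µL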
FGF22 binding – FGF22 (human) thermal shift binding; Q9HCT0; calls only at 9.99 µM; 1.5% of 340,000 active; recombinant FGF22 thermal shift, SYPRO orange fluorescence; percent of sucrose octasulfate shift, DMSO zero; AID 651658;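 active = melting point raised past a set limit in the mean and every replicate; inconclusive = no clear call; three in four hits are not shown here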
Target sequence (Q9HCT0 whole entry, looked up): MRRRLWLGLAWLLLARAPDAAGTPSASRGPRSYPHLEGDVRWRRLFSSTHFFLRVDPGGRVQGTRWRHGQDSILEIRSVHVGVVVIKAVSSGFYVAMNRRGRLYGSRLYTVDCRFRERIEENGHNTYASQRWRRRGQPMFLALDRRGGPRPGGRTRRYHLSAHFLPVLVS
AF4-AF9 inh – MLL-AF4/AF9 protein interaction inhibition | P42568 | AlphaScreen, biotin-AF4 peptide binding to FLAG-AF9 | inhibition, % at 10 µM | 0.47% of 350,000 active | AID 651704;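 active = every replicate reaching a set inhibition limit, whatever the replicate mean, cut at about 25% in these data; inconclusive = mean inhibition reaches that limit but some replicates miss it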;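 also: 0% = plate neutral control median and 100% = total signal loss; the record names both 10 and 1 µM as test concentration; the first replicate is given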
Target sequence (P42568 whole entry, looked up): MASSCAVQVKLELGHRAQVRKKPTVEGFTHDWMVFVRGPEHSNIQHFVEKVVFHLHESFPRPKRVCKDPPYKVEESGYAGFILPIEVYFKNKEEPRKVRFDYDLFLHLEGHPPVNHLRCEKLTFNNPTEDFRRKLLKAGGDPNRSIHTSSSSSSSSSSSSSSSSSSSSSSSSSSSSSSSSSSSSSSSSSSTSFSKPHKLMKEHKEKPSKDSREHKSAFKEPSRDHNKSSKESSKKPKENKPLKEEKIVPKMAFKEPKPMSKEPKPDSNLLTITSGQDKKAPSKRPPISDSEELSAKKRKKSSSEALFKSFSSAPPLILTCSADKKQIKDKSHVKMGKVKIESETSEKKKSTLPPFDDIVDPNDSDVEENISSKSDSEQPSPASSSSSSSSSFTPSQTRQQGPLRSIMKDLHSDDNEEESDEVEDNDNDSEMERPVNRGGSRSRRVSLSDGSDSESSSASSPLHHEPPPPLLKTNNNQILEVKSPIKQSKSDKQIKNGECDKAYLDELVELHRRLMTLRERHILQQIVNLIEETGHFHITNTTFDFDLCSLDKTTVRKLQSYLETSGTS
Ecoli rRNA inh – inhibitors of bacterial rRNA selective over humanized ribosomes; E. coli WT GFP vs humanized-ribosome RFP mutants, fluorescence, 24 h; active compounds read low; DMSO median 0, no signal -100; GFP signal change (wild-type ribosome), % (concentration not given with the values); 1.6% of 350,000 active; AID 720706;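 active = significant combined selectivity score with lowered wild-type GFP, culture density cut under 30%, mutant RFP and density less affected; inactive = any of these conditions unmet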; also: one replicate is shown; some compounds called inactive have numbers as strong as hits
ALR H2O2 inh – inhibitors of human sulfhydryl oxidase ALR. inhibition, % (no concentration beside the values). P55789. purified ALR, DTT oxidation, H2O2 HRP-luminol luminescence. 3.8% of 290,000 active;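 active = mean and each replicate at 75% or more; inconclusive = only one of the two met; inactive = neither met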;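 also: stock transfer was 7.5 nL into about 7.5 µL; 0% = neutral wells and 100% = wells with inactivated enzyme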
Target sequence (P55789 whole entry, looked up): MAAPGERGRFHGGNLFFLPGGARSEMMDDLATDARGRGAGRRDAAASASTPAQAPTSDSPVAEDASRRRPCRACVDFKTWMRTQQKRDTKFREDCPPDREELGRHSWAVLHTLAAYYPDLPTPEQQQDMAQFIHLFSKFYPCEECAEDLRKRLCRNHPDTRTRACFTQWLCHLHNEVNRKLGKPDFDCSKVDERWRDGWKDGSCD
Ecoli rRNA inh OD600 – further read-out of Ecoli rRNA inh, marked with its call; OD600 change, %; measured here: OD600 growth;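 optical density of the mix in the first replicate; 0 = DMSO median and -100 = no signal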
Ecoli rRNA inh RFP – further read-out of Ecoli rRNA inh, marked with its call; RFP signal change, %; measured here: RFP humanized mutant strains;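 first replicate; 0 = DMSO median and -100 = no signal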
* marks the source's active call; other numbers are inactive results; i = inactive; ? = inconclusive; · = not tested or not shown. A portion of the library; the hit share may differ from the screen's.

SMILES,Vif A3G,HNF4A DNA FP,E coli growth,FGF22 binding,AF4-AF9 inh,Ecoli rRNA inh,Ecoli rRNA inh OD600,Ecoli rRNA inh RFP,ALR H2O2 inh
CN1CCN(c2ccccc2NC(=O)C(Cc2ccccc2)n2cccc2)CC1 (stereo not drawn),>100µM*,1.6,0.7,i,5.3,0,-13,9.5,-30
Cc1noc(C)c1NC(=O)N(C)C[C@H]1Oc2ncc(C#CCC(C)C)cc2C(=O)N([C@H](C)CO)C[C@H]1C,·,·,·,i,-0.5,6,6,-1.7,·
O=C(O)C=C1CCN(c2ncc(C(F)(F)F)cc2Cl)CC1,?,-0.7,0.65,·,·,·,·,·,·
O=C(NC1CCCCCC1)c1ccccc1-c1ccccc1,·,-3.1,0.68,i,0.5,-2,-4,-3.3,1
C[C@H](CO)N1C[C@H](C)[C@H](CN(C)C(=O)C2CCCCC2)Oc2cc(-c3cccnc3)ccc2S1(=O)=O,·,·,·,i,8.0,-7,-3,2.2,·
COc1ccccc1CNC(=O)CCCn1nc(C)c2c(C)n(-c3ccccc3)nc2c1=O,·,1.6,0.68,i,1.8,-8,-13,-0.2,-1
COCc1cc(C)nc(SCC(=O)Nc2ccc3c(c2)n(C)c(=O)n3C)c1C#N,-17%,2.2,0.68,i,-0.8,1,10,0.4,-3
C[C@@H]1CN([C@H](C)CO)C(=O)c2cccc(NC(=O)Nc3ccc(C(F)(F)F)cc3)c2O[C@@H]1CN(C)C(=O)Nc1ccc(F)cc1,·,·,·,i,-7.3,-1,-3,0.0,·
CCC(=O)Nc1nnc(C)s1,-2%,1.2,0.77,·,·,·,·,·,·
CO[C@H]1CN(C)C(=O)c2cc(NC(=O)c3ccccc3)ccc2OC[C@H](C)N(C(=O)CN(C)C)C[C@@H]1C,·,·,·,i,-1.3,2,0,-2.1,·
C[C@H]1CCCCO[C@@H](CN(C)Cc2ccccc2)[C@@H](C)CN([C@@H](C)CO)C(=O)c2cc(NS(=O)(=O)c3ccccc3)ccc2O1,·,·,·,i,0.1,-1,-10,2.7,·
CC(C)Nc1nc(Nc2ccc(Cl)cc2F)c2sccc2n1,·,3.4,·,i,1.6,-60,-84,-22,·
N#C/C(=C\c1ccccc1O)C(=O)Nc1cccnc1,5%,-3.9,0.71,i,0.7,10,8,5.3,-10
COc1ccc(NC(=O)Nc2ccc3c(c2)C(=O)N([C@H](C)CO)C[C@H](C)[C@H](CN(C)S(=O)(=O)c2ccc(Cl)cc2)OCCCC[C@H](C)O3)cc1,·,·,·,i,1.6,-1,8,-3.8,·
CCOCCn1c(CN2CCN(c3cccc(Cl)c3)CC2)nc2c1c(=O)n(C)c(=O)n2C,-1%,-5.7,0.71,i,0.0,3,-21,-6.8,·
Oc1ccc(-c2n[nH]c(=S)n2-c2ccc3c(c2)OCCO3)cc1,-1%,-0.7,0.69,i,-6.3,-19,-12,-0.4,·
CCC(=O)N(C)C[C@H]1Oc2ncc(C#C[C@@H](C)O)cc2C(=O)N([C@@H](C)CO)C[C@H]1C,·,·,·,i,-3.3,-5,3,0.4,·
C=C(C)Cn1c(N2CC(C)CC(C)C2)nc2c1c(=O)[nH]c(=O)n2C (stereo not drawn),·,1.7,0.7,i,0.0,4,6,0.2,-3
COc1cc(OC)c(/C=C2\C(=O)Nc3ccccc32)c(OC)c1,·,·,·,i,2.7,·,·,·,-62
C[C@H](CO)N1C[C@H](C)[C@@H](CN(C)CC2CCCCC2)OCc2cnnn2CCCC1=O,·,·,·,i,0.2,2,0,-0.2,·
COC(=O)c1cc(Nc2cc(C)c3ccc(O)cc3n2)cc(C(=O)OC)c1,-43%,2.5,0.69,i,-2.7,-6,-2,-1.0,-2
CCN(Cc1ccccc1)S(=O)(=O)c1cc(C(=O)NC(C)C2CC3CCC2C3)ccc1OC (stereo not drawn),1%,-3.0,0.76,·,·,·,·,·,·
CC(C)c1ccc(NC(=O)CSc2ncccc2C(=O)Oc2cccc([N+](=O)[O-])c2)cc1,2%,-4.7,0.67,i,2.9,3,4,-5.6,10
CC1CCCCN1C(=O)CN1C(=O)CSc2ccc(S(=O)(=O)N3CCOCC3)cc21 (stereo not drawn),·,2.6,0.7,i,3.0,10,4,-0.3,·
Cc1cccc(N2C(S)=C(C#N)C(=O)NC2c2ccco2)c1 (stereo not drawn),13%,2.9,0.63,i,-3.0,-9,-10,2.0,18
CC1(C)OC(=O)C2=C(CC(CCc3ccccc3)OC2c2cccc(C(F)(F)F)c2)O1 (stereo not drawn),·,·,·,i,-8.1,8,5,2.0,·
COc1ccc(C(=O)NC2CCN(S(=O)(=O)c3ccc(F)cc3)CC2)cc1,·,-3.2,0.7,i,-4.0,21,18,4.8,-1
O=[N+]([O-])c1cnccc1NC1CCCCC1,-8%,2.7,0.65,i,-0.9,4,6,-3.0,-6
O=S(=O)(N[C@@H]1CC[C@@H](CCn2cc(-c3cccc(F)c3)nn2)O[C@@H]1CO)c1ccccc1,·,·,·,i,-0.7,-2,2,-2.9,·
O=C(CSc1nc2ccccc2o1)N1CCCC1,0%,-1.9,0.69,·,·,·,·,·,-5
COc1cc2nc(NC(=O)c3ccc(F)cc3Cl)sc(=O)c2cc1OC,-32%,-0.9,0.64,·,·,·,·,·,21
Clc1nc(Cl)nc(N(c2ccccc2)c2ccccc2)n1,?,0.4,0.69,i,12,2,-2,-0.8,2
COc1ccc(OC)c(C2C3=C(CC(C)(C)CC3=O)Nc3nnnn32)c1 (stereo not drawn),?,1.0,0.69,i,3.6,12,5,-6.4,-22
C[C@@H]1CN([C@@H](C)CO)C(=O)c2cc(NC(=O)Nc3ccc(C(F)(F)F)cc3)ccc2O[C@@H](C)CCCCO[C@H]1CN(C)S(=O)(=O)c1cccs1,·,·,·,i,0.4,-7,0,-4.7,·
Cc1cc(C(=O)N2CCC2(C)C(=O)NCc2cccc3ccccc23)nn1C (stereo not drawn),·,2.0,·,i,1.6,0,2,-0.9,·
Cc1ccccc1C1=NC(C(F)(F)F)(C(F)(F)F)c2c(n(C)c(=O)n(C)c2=O)N1,32%,-0.1,0.71,i,-1.2,-8,1,-3.0,2
Cc1nc(NC(=O)c2cc3c(s2)CCCCC3)sc1C(=O)N(C)C,0%,-1.3,0.64,·,·,·,·,·,-3
COC(=O)/C(=C\Nc1ccc(Cl)c2ccccc12)c1ncc(C(F)(F)F)cc1Cl,5%,0.2,·,·,·,·,·,·,-6
Cc1ccc(NC(=O)C2CCN(S(=O)(=O)c3ccc4c(c3)CC(C)N4C(=O)C3CCC3)CC2)nc1 (stereo not drawn),·,-1.4,0.63,i,0.9,-8,-17,-6.5,-4
CCCN(CCC)C(=O)c1cc2c(=O)[nH]c3ccc(C)cc3c2s1,-6%,6.7,0.67,i,-1.7,-6,-9,-3.5,·
CCN(C(=O)CN1CCN(C)CC1)c1cccc2ccccc12,0%,2.0,0.74,·,·,·,·,·,-11
CCOC(=O)c1cc(-c2ccc(OC)cc2)nn1-c1ccccc1C(=O)O,31%,-11,0.71,i,-17,2,5,1.3,-1
Cc1ccccc1Cn1nc(C)c(NC(=O)c2noc3c2CCCC3)c1C,6%,0.3,0.68,·,·,·,·,·,2
COc1ccc(/C=N/NC2=NCCCCC2)cc1,-1%,3.6,·,·,·,·,·,·,-8
CCOC(=O)C(=NC(C)(C)C)NNc1cc(Cl)ccc1Cl,2%,0.6,0.72,·,·,·,·,·,99*

A draw from above in order of number of heavy atoms, falling.
SMILES,Vif A3G,HNF4A DNA FP,E coli growth,FGF22 binding,AF4-AF9 inh,Ecoli rRNA inh,Ecoli rRNA inh OD600,Ecoli rRNA inh RFP,ALR H2O2 inh
Cc1ccccc1C1=NC(C(F)(F)F)(C(F)(F)F)c2c(n(C)c(=O)n(C)c2=O)N1,32%,-0.1,0.71,i,-1.2,-8,1,-3.0,2
COc1ccc(OC)c(C2C3=C(CC(C)(C)CC3=O)Nc3nnnn32)c1 (stereo not drawn),?,1.0,0.69,i,3.6,12,5,-6.4,-22
CCCN(CCC)C(=O)c1cc2c(=O)[nH]c3ccc(C)cc3c2s1,-6%,6.7,0.67,i,-1.7,-6,-9,-3.5,·

Remaining list, next part
SMILES,Vif A3G,HNF4A DNA FP,E coli growth,FGF22 binding,AF4-AF9 inh,Ecoli rRNA inh,Ecoli rRNA inh OD600,Ecoli rRNA inh RFP,ALR H2O2 inh
CC(C)NC(=O)N(C)C[C@@H]1Oc2ccc(NS(=O)(=O)c3ccc(Cl)cc3)cc2CC(=O)N([C@H](C)CO)C[C@@H]1C,·,·,·,i,-2.6,-1,-1,0.1,·
CC(C)(C)c1ccc(C(O)c2ncc(-c3ccccc3)[nH]2)cc1 (stereo not drawn),·,0.6,·,i,5.2,-4,-15,1.3,·
O=C(Nc1cn(-c2ccccc2)nc1-c1ccc(F)cc1)c1ccccc1,·,-1.6,·,i,-0.5,·,·,·,-4
Cc1ccc(C)c(S(=O)(=O)NC(C)CCc2ccccc2)c1 (stereo not drawn),·,0.6,0.72,i,3.3,-39,-65,1.3,-15
CCCCN1C(=O)c2ccc(C(=O)Nc3cccc(C)c3C)cc2C1=O,2%,0.3,0.74,·,·,·,·,·,-4
Nc1nc(SCC(=O)NNc2c(Cl)cc(Cl)cc2Cl)n[nH]1,?,2.2,0.66,i,-3.7,8,11,1.2,96*
COc1ccc2cc(CO)c3cc(OC)c(OC)cc3c2c1,·,-0.3,·,i,0.1,-28*,-15*,-10*,-1
CCCCCCCCSc1n[nH]c(N)n1,0%,5.3,0.67,i,-3.4,-20,-34,-3.7,5
c1ccc(C(c2nnnn2C2CCCC2)N2CCN(c3ccccc3)CC2)cc1 (stereo not drawn),3%,1.1,0.76,·,·,·,·,·,8
C/C=C/c1ccc([C@@H]2[C@H](CO)N(CC3CCCC3)C23CN(C(=O)CC2CC2)C3)cc1,·,·,·,i,5.3,-14,-40,33,·
CC(NC(=O)COC(=O)c1cccnc1Cl)C12CC3CC(CC(C3)C1)C2 (stereo not drawn),·,0.2,·,i,-0.7,-36,-46,-7.2,-1
O=c1[nH]c(=O)n(CCCc2ccccc2)cc1-c1ccccc1,-5%,-0.8,·,i,-3.8,-5,-14,-3.3,·
O=C(c1cccc(C(F)(F)F)c1)N1CCCC1,-6%,-2.8,0.7,i,7.4,2,7,-4.8,-9

Source: PubChem (several laboratories)
